High-throughput results from PubChem BioAssay.
STK33 inh: inhibitors of purified STK33 kinase, primary screen, biochemical, ADP-Glo luminescence, homogeneous, cell-free | MBP phosphorylation | inhibition, % at 10 µM | 320,000 compounds, 0.073% hits | AID 2661, 2010;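 active = inhibition at or above 25%, using the most active replicate where run in duplicate; inactive = inhibition below 25%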
Target sequence (Q9BYT3 whole entry, looked up): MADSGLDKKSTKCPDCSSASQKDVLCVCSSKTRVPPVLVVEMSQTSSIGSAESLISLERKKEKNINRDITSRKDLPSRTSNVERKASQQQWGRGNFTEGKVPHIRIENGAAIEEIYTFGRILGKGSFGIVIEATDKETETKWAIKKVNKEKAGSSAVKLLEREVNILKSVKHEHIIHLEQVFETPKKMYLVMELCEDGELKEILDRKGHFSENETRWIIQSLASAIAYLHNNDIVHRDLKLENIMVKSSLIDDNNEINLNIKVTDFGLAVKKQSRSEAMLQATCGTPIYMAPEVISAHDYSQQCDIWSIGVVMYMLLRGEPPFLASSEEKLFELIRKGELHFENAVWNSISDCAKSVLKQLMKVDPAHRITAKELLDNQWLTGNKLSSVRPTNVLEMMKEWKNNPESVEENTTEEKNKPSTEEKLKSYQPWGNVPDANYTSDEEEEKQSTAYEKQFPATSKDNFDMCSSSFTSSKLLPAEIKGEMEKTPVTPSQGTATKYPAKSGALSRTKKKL
OX1R antag: antagonists of human orexin 1 receptor (OX1R); Orexin/Hypocretin receptor type 1 (Homo sapiens), O43613; OX1R-expressing cells, FRET antagonist read-out; inhibition, % at 6.6 µM; 330,000 compounds, 1.8% hits; AID 485270, 2010; in the data active = inhibition mostly above about 38%, no sharp cut-off; inactive = mostly below about 40%;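 note: 0% = agonist challenge alone and 100% = reference antagonist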
Target sequence (O43613 whole entry, looked up): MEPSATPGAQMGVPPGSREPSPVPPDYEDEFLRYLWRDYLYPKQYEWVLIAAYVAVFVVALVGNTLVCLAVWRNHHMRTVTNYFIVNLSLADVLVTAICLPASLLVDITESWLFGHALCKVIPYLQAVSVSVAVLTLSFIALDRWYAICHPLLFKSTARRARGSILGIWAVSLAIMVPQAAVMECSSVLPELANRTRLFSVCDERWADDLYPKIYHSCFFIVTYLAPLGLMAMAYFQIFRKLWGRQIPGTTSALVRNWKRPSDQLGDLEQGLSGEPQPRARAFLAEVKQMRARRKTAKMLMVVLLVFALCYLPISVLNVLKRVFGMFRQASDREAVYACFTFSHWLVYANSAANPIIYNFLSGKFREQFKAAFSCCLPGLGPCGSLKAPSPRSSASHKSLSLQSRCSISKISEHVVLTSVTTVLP
Active calls of the source: *; . = no result given. Some of the compounds tested, and most or all hits are left out here.

SMILES | STK33 inh | OX1R antag
COc1ccc(C(=O)c2c(N)sc3c2CCN(C(=O)OC(C)(C)C)C3)cc1 | 0.0 | 2
CCCNC(=O)c1ccc2c(=O)c(O)c(-c3ccc(C)cc3)[nH]c2c1 | -1.7 | 32
O=C(CCN1C(=O)c2ccc([N+](=O)[O-])cc2C1=O)Nc1ccccc1C(=O)O | -0.3 | 67
CCC(=O)N1CCc2cc(S(=O)(=O)NCCC(=O)N3CCN(Cc4ccccc4)CC3)ccc21 | -0.8 | 8
CCN(CC)S(=O)(=O)c1cc(C(=O)OCC(=O)Nc2cccc(Br)c2)ccc1F | -1.5 | 2
Cc1ccc(C2(CC(=O)N3CCCC3)CCOC(C(C)C)C2)cc1 (stereo not given) | 0.2 | 13
Cc1ccc(SC[C@H](Cc2ccccc2)N2CC[C@@H](NC(=O)OCc3ccccc3)CCC2=O)cc1 | -0.3 | 37
CC(C)Oc1ccc(CCNC(=O)CC2C(=O)NCCN2C)cc1 (stereo not given) | 0.3 | 7
CC(C)CCNC(=O)c1ccc(Cl)c(NC(=O)c2ccccc2F)c1 | -2.9 | 23
CC1(C)CC(O)CC(C)(C)N1CC(O)COCCOc1ccc(Br)cc1 (stereo not given) | -2.7 | 9
COc1ccc(NC(=O)c2cc(S(=O)(=O)N3CCCCC3)c[nH]2)c(OC)c1 | -0.7 | 16
O=C(NC1(C(F)(F)F)NC(=O)N(Cc2cccnc2)C1=O)c1cccs1 (stereo not given) | 1.7 | 8
COc1ccc2c(c1OC)C(=O)N1c3ccccc3SC21 (stereo not given) | 0.7 | 32
CCOC(=O)N1CCN(C(=O)COc2ccccc2OC)CC1 | -1.6 | 7
O=C(COC(=O)CCC1CCCC1)Nc1ccc(Cl)cn1 | 0.4 | 5

Quoted at random: two records from the list.
SMILES | STK33 inh | OX1R antag
O=C(NC1(C(F)(F)F)NC(=O)N(Cc2cccnc2)C1=O)c1cccs1 (stereo not given) | 1.7 | 8
CCCNC(=O)c1ccc2c(=O)c(O)c(-c3ccc(C)cc3)[nH]c2c1 | -1.7 | 32

Following part
SMILES | STK33 inh | OX1R antag
O=C(CN1C(=O)NC2(CCCC2)C1=O)NCC1CCCO1 (stereo not given) | -0.1 | 5
CCCc1cc(C(=O)OC)c(NC(=O)c2cc(C)on2)s1 | -0.4 | 12
COc1ccc(/C=C/C(=O)N(c2ccccn2)C2CCCCC2)cc1OC | -0.4 | 12
CC1(C)C/C(=N/Nc2ccc([N+](=O)[O-])cc2[N+](=O)[O-])C(C)(C)O1 | -2.5 | 8
CN(CCOC(=O)c1ccc2c(c1)OCCO2)C(C)(C)C | -0.4 | 16
CC(C)CN1C(=O)c2ccc(C(=O)NCc3ccccn3)cc2C1=O | 0.1 | 34
N#CC1(NC(=O)Cn2ncc(Cl)c(Cl)c2=O)CCCCC1 | -0.7 | 12
CN(c1ccccc1)c1nc(N2CCCC2)nc(-n2ccnc2)n1 | 0.9 | 42
CCOC(=O)c1cc(CC)sc1NC(=O)c1ccc2c(c1)OCCO2 | -0.9 | 20
O=C(N/N=C/c1ccco1)c1[nH]ncc1Br | 2.5 | .
O=S(Cc1ccc(Br)cc1)Cc1nnc(SCc2ccc(Cl)cc2)n1-c1ccccc1 (stereo not given) | -0.1 | 7
CCC(C)[C@H](NS(=O)(=O)c1ccc(C)cc1)C(=O)N1CCC(C(=O)N[C@@H](Cc2ccccc2)C(=O)O)CC1 (stereo not given in full) | -0.6 | 14
O=C(Nc1ncc(Cc2ccccc2Cl)s1)c1ccc([N+](=O)[O-])cc1 | 4.6 | 26
CN(Cc1cccs1)C(=O)C1CC(=O)N(Cc2ccccc2)C1 (stereo not given) | 0.3 | 14
Cc1csc(NC(=O)NC2(C(F)(F)F)Oc3ccccc3O2)n1 | -0.8 | 18
CCOC(=O)c1c(CSCc2ccccc2)oc2ccc(O)c(CN(C)C)c12 | 3.4 | 3
COc1ccc(NC(=O)c2cccs2)cc1OC | -0.2 | 9
O=c1cc(-c2ccccc2Cl)oc2cc(O)cc(O)c12 | -0.5 | 34
CCOc1ccccc1NC(=O)Nc1cc(S(=O)(=O)N(C)C)ccc1C | 0.0 | 7
CC(C)Cc1[nH]c(=O)c(C#N)c2c1COC(C)(C)C2 | -1.5 | 11
O=C(CN(Cc1ccco1)S(=O)(=O)c1ccccc1)N/N=C/c1cccc(O)c1 | -0.4 | 19
O=C(CNCc1ccc(Cl)cc1)Nc1ccc(C(=O)N2CCCCC2)cc1 | 0.8 | 16
Cc1ccc2ccccc2c1NC(=O)c1ccco1 | -0.1 | 5
Cc1cn2c(nc(=O)c3cccnc32)s1 | -0.2 | -1
COc1cccc(CNC(=O)Cn2cccc2C(=O)c2ccccc2C)c1 | -1.0 | 23
CC(C)C(=O)Nc1ccc(NC(=O)c2cccnc2)cn1 | -2.4 | 13
COCCOC(=O)C1=C(C)NC2=C(C(=O)CCC2)C1c1ccc2c(c1)OCO2 (stereo not given) | -2.3 | -8
CCc1cc(C(=O)O)c(NC(=O)/C=C/c2ccc(OC)cc2)s1 | -1.1 | 21
CC(=O)N1CCCc2cc(S(=O)(=O)NC(C(=O)NC3CCCCC3)C(C)C)ccc21 (stereo not given) | -0.6 | 3
Cc1ccc(C(=O)N(CC(=O)NC2CCCCC2)c2ccccc2C)s1 | -1.0 | 22
C/C(=N\O)c1ccc2c(c1)OCCO2 | 1.1 | 0
COC(=O)c1cn(C(=O)c2ccc(Br)o2)c2ccccc12 | 3.6 | 19
CCOc1cc(C(=O)NCCOC)cc(OCC)c1OCC | -1.7 | 14
Cc1ccccc1NC(=O)COC(=O)CNC(=O)c1sc2ccccc2c1Cl | 1.2 | 1
O=C(Cn1cnc2ccccc21)N/N=C/c1ccc([N+](=O)[O-])cc1 | 1.7 | 24
CCOC(=O)C1=C(C)Nc2ncnn2C1/C=C/c1ccccc1 (stereo not given) | 0.5 | 30
O=c1ccc2cc(S(=O)(=O)NCCCc3ccccc3)ccc2[nH]1 | 0.6 | 5
CC(O)[C@H]1CNC(=O)C(=O)N1CCc1cccc2ccccc12 (stereo not given in full) | 1.2 | 29
COc1ccc(-c2cc(C(F)(F)F)nc(SCC(=O)NCc3ccco3)n2)cc1OC | -0.9 | 13
CCCCCN(C(=O)CCC(=O)OCc1ccccc1C)c1c(N)n(CCCC)c(=O)[nH]c1=O | -1.0 | 9
CC(=O)CCc1ccc(OC(=O)c2cccnc2)cc1 | -1.1 | 33
O=C(O)CCn1c(-c2ccccn2)nc2ccccc21 | -1.7 | 0
COCCCN=C1NN=C(c2cc(C)n(-c3ccccc3)c2C)CS1 | 0.3 | 15
COc1ccc(S(=O)(=O)N2CCc3ccccc3C2)cc1C(=O)O | -2.0 | 2
O=C(CN(Cc1ccccc1)C(=O)CNS(=O)(=O)c1ccc(Cl)cc1)NCC1CCCO1 (stereo not given) | 0.3 | 12

Arranged by count of non-hydrogen atoms (low to high): three of the compounds above
SMILES | STK33 inh | OX1R antag
CC(=O)CCc1ccc(OC(=O)c2cccnc2)cc1 | -1.1 | 33
CCOc1cc(C(=O)NCCOC)cc(OCC)c1OCC | -1.7 | 14
CC(O)[C@H]1CNC(=O)C(=O)N1CCc1cccc2ccccc12 (stereo not given in full) | 1.2 | 29

Additional compounds.
SMILES | STK33 inh | OX1R antag
Fc1ccc(COc2ccc3ccccc3c2CNc2nn[nH]n2)cc1 | 1.9 | 25
Cc1ccccc1OCC(=O)OC(C)CN1CCN(C)CC1 (stereo not given) | -0.7 | 34
NS(=O)(=O)c1ccc(SCc2ccccc2)nc1 | 0.5 | 17
CCCCOC(=O)Nc1nnc(SCCOc2ccc(C)cc2)s1 | -1.2 | 13
COc1ccc(N2CCN(Cc3nc4c(c(=O)n(C)c(=O)n4C)n3Cc3cccc(C)c3)CC2)cc1 | 0.0 | -1
CCOCc1nnc(NC(=O)CSc2ccccc2)s1 | -1.0 | 9
CN(C)C(=O)c1ccc(COc2ccccc2Br)o1 | 0.4 | 9
COc1ccccc1NS(=O)(=O)c1cc(NC(=O)Cn2cnc3c2c(=O)n(C)c(=O)n3C)ccc1C | -1.4 | -3
CC(C)c1ccc(CNc2c([N+](=O)[O-])c(=O)oc3ccccc23)cc1 | -2.5 | 15
CCC(=O)c1ccc(OCc2ccc(C(=O)OC)cc2)cc1 | -0.3 | 24
O=C(Oc1ccccc1)N1CCCC1 | -0.7 | -1
Cc1ccc(-c2nc3ccc(Cl)cc3c(=O)n2O)cc1 | 0.0 | -3
COc1ccc(/C=C/CN2CCC(CO)(Cc3ccccc3Cl)CC2)cc1 | 0.2 | 13
Cc1ccc2n(n1)c(=O)c(Cc1ccccc1)c([O-])[n+]2-c1ccccc1 | -1.6 | 48*
Cc1ccccc1C(=O)N[C@H](C(=O)Nc1ccc(Cl)c(Cl)c1)C(C)C | -0.4 | 23
Nn1c(SCc2nc3ccccc3[nH]2)nnc1-c1ccccc1 | 0.8 | 9
O=C(Nc1ccc(CN2CCOCC2)cc1)c1ccc(Br)o1 | 6.6 | 5
Cc1cccc2cc(C(c3nnnn3Cc3ccccc3)N3CCCc4ccccc43)c(=O)[nH]c12 (stereo not given) | -3.1 | 10
Cn1nc(C(F)(F)F)c(-c2cccc(C(F)(F)F)c2)c1NC(=O)CSCC(=O)O | -1.2 | 6
CNC(=S)NNC(=O)CCn1nc(C)c(Br)c1C | 0.5 | 2
Cc1cc(C)cc(NC(=O)CN2CCC(C(=O)c3ccccc3)CC2)c1 | 0.9 | 24
Cc1ccc(NC(=O)CSc2nnc(-c3ccccn3)n2N)cc1F | -0.7 | 5
CCN(CC)S(=O)(=O)c1ccc(N/N=C/c2ccc(OC)c(OC)c2OC)nc1 | -1.3 | 1
CCOC(=O)CC1(NC(=O)C2CCC(=O)N(Cc3ccccc3F)C2)CCCCC1 (stereo not given) | -1.9 | 7
Cc1ccc(CNC(=O)Nc2ccccc2)c(C)c1 | -1.2 | 50
Cn1c(Cc2ccccc2)nnc1SCC(=O)NC1CCCC1 | 1.4 | 16
COC(=O)N/N=C/c1ccc([N+](=O)[O-])o1 | -0.8 | 56*
COc1ccc(/C=N/NC(=O)c2cccc(NC(=O)c3ccccc3)c2)c(C(=O)O)c1OC | -0.6 | 7
C=C(C)CNC(=S)N/N=C(\C)c1ccc(-n2ccnc2)cc1 | -6.0 | 14
Cc1ccc(N2CC(C(=O)N/N=C/c3sccc3C)CC2=O)cc1 (stereo not given) | -0.8 | 9
COc1ccccc1-c1nnc(SCC(=O)NCc2c(C)c(Cl)cc(C(C)C)c2O)o1 | -1.2 | 9
COc1ccccc1Cn1[nH]nnc1=S | 0.0 | 0
COC(=O)c1cccc(NC(=O)Cc2ccccc2[N+](=O)[O-])c1C | -4.8 | 12
CC(C)(C)N(Cc1ccccc1)C(=O)COC(=O)CN1C(=O)NC2(CCCC2)C1=O | -0.9 | 1
COc1cc(OC)c(OC)cc1CN1CCN(S(=O)(=O)c2ccc(F)cc2)CC1 | -1.7 | 1
CCOc1ccc(CCNC(=O)C2CC(=O)N(c3ccccc3OCC)C2)cc1OCC (stereo not given) | -2.5 | 14
C/C(CC(=O)Nc1cc(Cl)ccc1Cl)=N\NC(=O)c1ccco1 | -2.0 | 10
COc1ccc(C2C(C(=O)N3CCOCC3)c3ccccc3C(=O)N2c2ccc(OC)cc2)cc1 (stereo not given) | -0.9 | 17
Cc1nn(-c2ccccc2)c(N)c1C(O)(C(F)(F)F)C(F)(F)F | 0.6 | 0
O=C(c1cc2ccccc2oc1=O)N1CCN(c2ccc(N3CCOCC3)nn2)CC1 | -0.1 | 30
CCN1CCCC1CNC(=O)c1cc(S(N)(=O)=O)ccc1OC (stereo not given) | -1.7 | 15
CCCOc1ccc(/C=N/NC(=O)c2nnn(-c3nonc3N)c2-c2cccs2)cc1OC | 1.7 | 16
FC(F)(F)c1cccc(N2CCN(C(=S)NC3CCCCC3)CC2)c1 | 1.0 | 25
CCOC(=O)c1cc(-c2ccco2)nn1-c1ccc(C)cc1 | -4.0 | 10
CCOc1ccc(N2CC(C(=O)Nc3ccc4c(c3)OCCO4)CC2=O)cc1 (stereo not given) | 2.4 | 27
CCOc1cc(C(=S)N2CCN(C)CC2)ccc1OCC(=O)N1CCCC1 | -0.6 | 8
O=S(=O)(c1ccc(F)cc1)c1nc(-c2ccco2)oc1Nc1ccc(F)cc1 | -0.9 | 17
O=C1CCCc2ccccc2N1Cc1ccc(Cl)cc1Cl | 0.2 | 13
CCOC(=O)c1[nH]c(C)c(C(=O)N2CCN(c3cccc(Cl)c3)CC2)c1C | -0.9 | 9
Cn1c(SCC(=O)NCc2ccc3c(c2)OCO3)nnc1C1COc2ccccc2O1 (stereo not given) | -1.8 | 26
CCCCN(Cc1cc2cc(OC)ccc2[nH]c1=O)C(=O)c1ccco1 | 0.1 | 8
CCCNC(=O)C(=O)NCC(c1ccc2c(c1)OCO2)N1CCN(c2ccc(F)cc2)CC1 (stereo not given) | 0.4 | 6
Cc1cc(C(=O)COC(=O)c2ccc(Br)o2)c(C)n1C | -0.1 | 5
Cc1ccc(NC(=S)N2CCCC(c3nc4ccc(C)cc4[nH]3)C2)c(C)c1 (stereo not given) | -1.0 | 18
CN(C)CCNC(=O)Cc1ncc(C(F)(F)F)cc1Cl | -0.8 | 15
CC(C)CC(c1nnnn1C1CCCCC1)N1CCN(C(=O)c2ccco2)CC1 (stereo not given) | -1.1 | 8
O=C(CSc1nnc(Cc2ccccc2)o1)Nc1ccccc1 | -1.4 | 27

Of the compounds above, 7 have a COOH group:
SMILES | STK33 inh | OX1R antag
O=C(CCN1C(=O)c2ccc([N+](=O)[O-])cc2C1=O)Nc1ccccc1C(=O)O | -0.3 | 67
CCC(C)[C@H](NS(=O)(=O)c1ccc(C)cc1)C(=O)N1CCC(C(=O)N[C@@H](Cc2ccccc2)C(=O)O)CC1 (stereo not given in full) | -0.6 | 14
CCc1cc(C(=O)O)c(NC(=O)/C=C/c2ccc(OC)cc2)s1 | -1.1 | 21
O=C(O)CCn1c(-c2ccccn2)nc2ccccc21 | -1.7 | 0
COc1ccc(S(=O)(=O)N2CCc3ccccc3C2)cc1C(=O)O | -2.0 | 2
Cn1nc(C(F)(F)F)c(-c2cccc(C(F)(F)F)c2)c1NC(=O)CSCC(=O)O | -1.2 | 6
COc1ccc(/C=N/NC(=O)c2cccc(NC(=O)c3ccccc3)c2)c(C(=O)O)c1OC | -0.6 | 7
